UUG fidelity: yeast start codon fidelity modulation; S. cerevisiae UUG-firefly luciferase reporter, luminescence/redox ratio; activity score, % at 18.7 µM; 0.13% of 350,000 active;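 active means replicate mean at a twofold rise or more, about +100% in these data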;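 further: firefly luciferase made from a UUG start codon reports start codon fidelity; reporter light over untreated wells divided by growth signal over untreated wells; some hits fall short of that in this replicate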
Rce1 inh: blocks yeast Ras-converting enzyme. yeast membranes, quenched prenylated peptide cleavage fluorescence. 0.27% of 290,000 active. calls only. AID 2563;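 active means fall in fluorescence gain of 50% or more versus controls, with final raw signal at or below 3038400; inconclusive means same 50% fall but final raw signal above 3038400; inactive means fall in fluorescence gain under 50%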;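 further: plate controls were neutral control wells for no effect and wells lacking membranes for full effect; tested at 10 µM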
PABP polyA inh: PABP-poly(A) binding inhibition | 1% of 290,000 active | P11940 | inhibition, % at 35 µM | PABP-poly(A) RNA binding, fluorescence polarization;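 active means 50% or more with normal probe brightness, or confirmed in later tests; inconclusive means above 50% with abnormal brightness, or retests that disagree; inactive means below 50% or failed in later tests; about a fifth of its hits are not listed in these tables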;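 further: calls also rest on retests at 20 µM and on dose response follow-up; controls were probe without protein and protein plus probe with vehicle; some compounds called inactive have numbers as strong as hits; many hits fall short of the cut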
Target sequence (P11940 whole entry, looked up): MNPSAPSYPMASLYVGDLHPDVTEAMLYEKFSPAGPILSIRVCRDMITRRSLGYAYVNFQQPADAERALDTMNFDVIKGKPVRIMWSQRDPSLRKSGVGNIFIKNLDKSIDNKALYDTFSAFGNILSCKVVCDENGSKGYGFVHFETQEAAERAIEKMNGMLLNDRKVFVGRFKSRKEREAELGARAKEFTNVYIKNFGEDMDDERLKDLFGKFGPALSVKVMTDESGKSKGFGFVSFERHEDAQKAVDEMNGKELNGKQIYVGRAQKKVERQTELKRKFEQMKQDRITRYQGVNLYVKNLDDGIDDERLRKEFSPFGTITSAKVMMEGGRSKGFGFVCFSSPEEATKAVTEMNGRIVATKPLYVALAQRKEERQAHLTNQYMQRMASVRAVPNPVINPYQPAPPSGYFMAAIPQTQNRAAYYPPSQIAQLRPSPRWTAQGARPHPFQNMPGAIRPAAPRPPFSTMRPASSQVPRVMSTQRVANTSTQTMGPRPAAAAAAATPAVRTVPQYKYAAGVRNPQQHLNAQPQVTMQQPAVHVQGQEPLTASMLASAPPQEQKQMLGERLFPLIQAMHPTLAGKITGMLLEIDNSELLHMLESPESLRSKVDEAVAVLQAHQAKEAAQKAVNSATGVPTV
Env fusion inh: inhibitors of HIV Env-mediated cell fusion; 1.1% of 360,000 active; HeLa-JRFL Env/CEM21 cell fusion, luciferase; AID 651610; inhibition, % at 12.3 µM;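 active means mean replicate inhibition score of at least 50 and every replicate individually at or above 50; inconclusive means only one of the two criteria met; inactive means mean below 50 and not all replicates reaching 50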;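 further: 0% = plate neutral controls and 100% = maraviroc near 300 nM; one replicate is shown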
eIF4H inh: inhibitors of RNA binding by human eIF4H; eIF4H fluorescence polarization binding assay; 0.94% of 290,000 active; inhibition, % at 35 µM;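 active means 50% or more with normal probe brightness, or confirmed in later tests; inconclusive means above 50% with abnormal brightness, or retests that disagree; inactive means below 50% or failed in later tests; about a fifth of its hits are not listed in these tables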;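 further: calls also rest on retests at 20 µM and on dose response follow-up; 0% = protein and probe with vehicle and 100% = probe without protein; strong numbers were not always called active; many hits fall short of the cut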
MT1-MMP act inh: blocks activation of human MT1-MMP | GFP/RFP ratio change, % at 20 µM | P50281 | 0.061% of 360,000 active | AID 651647 | HT1080 RFP-PRO-GFP cells, GFP/RFP ratio fluorescence, overnight; percent of plate control window, DMSO zero;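 active means GFP/RFP ratio change of at least 30% with cell ATP level not reduced by more than half and red fluorescence within 50% of control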; further: strong numbers were not always called active
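Assay system: HT1080 RFP-PRO-GFP cells | Dosing: 20 µM single dose, 1% DMSO | Incubation: Cells overnight before dosing, compound overnight, 37 °C, 5% CO2 | Evaluation: GFP/RFP fluorescence ratio | Control set: DMSO-only wells and HT1080 RFP-L50D-GFP cell wells as references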
CSC inhib: cancer stem cell inhibition; 1.1% of 300,000 active; AID 2717; inhibition, % at 7.5 µM; cancer stem cell-like cells viability, luminescence;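 active means mean at 75% or more and at least half the replicates too; inconclusive means mean and replicates disagree; tested in HMLE shEcad cells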;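 further: 0% = median of negative and 100% = median of positive control wells; the first replicate is given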
eIF4H inh retest: also measured in eIF4H inh; calls as there; inhibition, %; compound at 20 µM; confirmation average;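 mean of two retest wells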
PABP polyA inh retest: also measured in PABP polyA inh; calls as there; inhibition, %; compound at 20 µM; confirmation repeats;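 mean of two retest wells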
MT1-MMP act inh RFP: also measured in MT1-MMP act inh; calls as there; RFP signal change, %; measured here: RFP expression control read;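 0 = vehicle wells; hits needed this value within 50% of zero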
Active calls of the source: *; i = inactive; ? = inconclusive; . = no result given. An excerpt; rates above refer to the full screens.

SMILES	UUG fidelity	Rce1 inh	PABP polyA inh	Env fusion inh	eIF4H inh	MT1-MMP act inh	MT1-MMP act inh RFP	CSC inhib	others
CC(C)(CNCc1ccccc1)NS(=O)(=O)c1ccc(Cl)cc1	-8	.	.	4	.	-1	0	9
C/C=C(\C)C(=O)Nc1cccc(C2=NOC3(C2)C[C@H](C(N)=O)N(C(=O)C(c2ccccc2)c2ccccc2)C3)c1 (some centres undefined)	20	i	4	-12	-14	-1	-4	-8
COc1ccc2ccccc2c1/C=N/NC(=O)CC1(C)OCCCO1	.	i	-2	-4	-4	1	5	-16
N#Cc1ccc(CN2CCN(C(=O)CC(NC(=O)c3ccccc3)c3ccccc3)CC2)cc1 (centres undefined)	6	i	1	5	0	3	0	-3
Cc1cccc(N2CC(C(=O)Nc3ccc(S(=O)(=O)N4CCOCC4)cc3)CC2=O)c1C (centres undefined)	-20	i	2	4	-8	-1	-1	-8
O=C1c2ccccc2S(=O)(=O)N1CC1CC(c2ccc(Cl)cc2)=NO1 (centres undefined)	-19	i	3	-174	8	7	-2	-8
CCCc1c(CC)c(=N)c2ccccc2n1C	.	.	-2	.	12	1	-14	-10
O=C(CSc1ncccn1)N1CCCCCC1	-15	.	.	.	.	-1	3	4
CCCCCn1c(SC(C)C(C)=O)nc2c1c(=O)[nH]c(=O)n2C (centres undefined)	-4	i	-6	-40	2	0	1	1
Cc1ccc(NC(=O)C2=NNC(=O)CC2)cc1F	.	i	-5	-11	-6	-1	1	-3
O=C(NCC(c1ccc(F)cc1)N1CCOCC1)c1ccc(Br)o1 (centres undefined)	-6	i	22	.	-9	0	4	3
COc1ccc(-c2nn(-c3ccccc3)cc2C2CC(c3cccs3)=NN2C(=O)CCC(=O)O)cc1 (centres undefined)	.	.	6	-57	-8	15	5	-24
O=C(N=C1SC2CS(=O)(=O)CC2N1c1ccc(Cl)cc1Cl)C1CC1 (centres undefined)	-11	i	-10	-6	-6	1	1	-10
Cc1ccc(C)c(S(=O)(=O)NCCCN2CCOCC2)c1	.	i	-9	-1	5	-1	5	5
O=C(Cc1ccc(Cl)cc1)Nc1cccc(S(=O)(=O)N2CCCCC2)c1	11	.	.	16	.	2	-4	-10
O=C(NCc1ccc(F)cc1)C1CCCN(C(=O)Nc2ccc(F)cc2)C1 (centres undefined)	-5	i	2	6	-7	6	2	-10
C[C@@H]1CCCN1[C@H]1CS(=O)(=O)N[C@@H]1COCc1ccccc1	-1	.	.	-6	.	3	5	.
Fc1cccc(F)c1-c1nc2c(s1)CCc1onc(-c3ccc(Br)cc3)c1-2	-12	i	.	-11	.	0	2	6
CCOC(=O)C1=C(C)NC(=O)NC1/C=C/c1ccccc1OC (centres undefined)	.	i	-6	7	-5	0	3	-21
CC(=O)c1ccc(NC(=S)Nc2ccc(Br)c(Cl)c2)cc1	.	i	0	8	-10	3	4	.
CCn1cc(C(=O)OCC(=O)N(C)C2CCS(=O)(=O)C2)c(=O)c2ccc(C)nc21 (centres undefined)	-17	.	-3	.	-5	1	2	-5
CCN1C[C@@H]2[C@@H]3C(=O)N(C)C(=O)[C@@H]3[C@](Cc3ccccc3)(C1=O)N2C(=O)c1ccc(Cl)c(Cl)c1	0	.	.	-9	.	-1	-1	.
C[C@H]1COC2=C1C(=O)C(=O)c1c2ccc2c1CCCC2(C)C	-18	i	44	.	60	4	2	67	eIF4H inh retest=1;PABP polyA inh retest=4
CCSc1nc2n(n1)C(c1cccc(F)c1)C1=C(CCCC1=O)N2 (centres undefined)	-7	i	2	-13	-13	4	-3	3
COc1cc(OC)cc(C(=O)N[C@H](C(=O)OCC(=O)Nc2sccc2C#N)C(C)C)c1	.	i	0	-19	99	.	.	-5	eIF4H inh retest=13;PABP polyA inh retest=40
CSc1ccccc1OCc1cc(C(=O)N2CCSCC2)no1	-11	i	7	-117	-17	4	3	-2
CC(NC(=O)c1ccco1)C(=O)N1CCN(c2ccccc2)CC1 (centres undefined)	5	i	7	i	-4	-4	3	2
CCn1c(SCC(=O)NCCc2ccccc2)nnc1C(C)C	.	i	3	1	4	4	1	-11
C=CCn1c(SCC(=O)Nc2ccc(C(=O)O)cc2)nc2sc(C)c(C)c2c1=O	-29	.	.	-435	.	1	2	.
COc1cscc1C(=O)O	-13	i	-2	8	-3	3	5	-20

Sorted by length of the SMILES (smallest number first): part of the list above.
SMILES	UUG fidelity	Rce1 inh	PABP polyA inh	Env fusion inh	eIF4H inh	MT1-MMP act inh	MT1-MMP act inh RFP	CSC inhib	others
COc1cscc1C(=O)O	-13	i	-2	8	-3	3	5	-20
CSc1ccccc1OCc1cc(C(=O)N2CCSCC2)no1	-11	i	7	-117	-17	4	3	-2
Cc1ccc(C)c(S(=O)(=O)NCCCN2CCOCC2)c1	.	i	-9	-1	5	-1	5	5
CCOC(=O)C1=C(C)NC(=O)NC1/C=C/c1ccccc1OC (centres undefined)	.	i	-6	7	-5	0	3	-21
CC(NC(=O)c1ccco1)C(=O)N1CCN(c2ccccc2)CC1 (centres undefined)	5	i	7	i	-4	-4	3	2
CCSc1nc2n(n1)C(c1cccc(F)c1)C1=C(CCCC1=O)N2 (centres undefined)	-7	i	2	-13	-13	4	-3	3
C[C@H]1COC2=C1C(=O)C(=O)c1c2ccc2c1CCCC2(C)C	-18	i	44	.	60	4	2	67	eIF4H inh retest=1;PABP polyA inh retest=4
O=C(NCc1ccc(F)cc1)C1CCCN(C(=O)Nc2ccc(F)cc2)C1 (centres undefined)	-5	i	2	6	-7	6	2	-10
O=C(Cc1ccc(Cl)cc1)Nc1cccc(S(=O)(=O)N2CCCCC2)c1	11	.	.	16	.	2	-4	-10
C[C@@H]1CCCN1[C@H]1CS(=O)(=O)N[C@@H]1COCc1ccccc1	-1	.	.	-6	.	3	5	.
Fc1cccc(F)c1-c1nc2c(s1)CCc1onc(-c3ccc(Br)cc3)c1-2	-12	i	.	-11	.	0	2	6
C=CCn1c(SCC(=O)Nc2ccc(C(=O)O)cc2)nc2sc(C)c(C)c2c1=O	-29	.	.	-435	.	1	2	.
CCn1cc(C(=O)OCC(=O)N(C)C2CCS(=O)(=O)C2)c(=O)c2ccc(C)nc21 (centres undefined)	-17	.	-3	.	-5	1	2	-5
COc1cc(OC)cc(C(=O)N[C@H](C(=O)OCC(=O)Nc2sccc2C#N)C(C)C)c1	.	i	0	-19	99	.	.	-5	eIF4H inh retest=13;PABP polyA inh retest=40
CCN1C[C@@H]2[C@@H]3C(=O)N(C)C(=O)[C@@H]3[C@](Cc3ccccc3)(C1=O)N2C(=O)c1ccc(Cl)c(Cl)c1	0	.	.	-9	.	-1	-1	.

Additional structures
SMILES	UUG fidelity	Rce1 inh	PABP polyA inh	Env fusion inh	eIF4H inh	MT1-MMP act inh	MT1-MMP act inh RFP	CSC inhib	others
Cn1c(CNc2ccc(O)cc2)nc2ccccc21	-32	i	?	-4	?	-53	3	6
COc1ccc(NCc2nnc(-c3ccccc3)o2)cc1	-6	i	5	-5	-10	-1	0	21
CC1=NN(c2ccc(Cl)cc2)C(=O)C1	.	i	-26	-64	7	0	-1	13
CCn1ncc(/C=N/NC(=O)c2ccc3c(c2)OCO3)c1C	-12	i	-9	-189	3	3	-1	.
O=C(Nc1ccon1)c1cc2c(s1)CCCC2	.	i	4	.	-2	-5	-5	4
CCN(CC)c1ccc(C=NNc2ccc([N+](=O)[O-])cn2)cc1	-25	.	.	-179	.	-73	15	.
CCS(=O)(=O)N1CCN(c2cccc(C)c2C)CC1	-18	i	2	.	-3	3	0	-13
CC1(c2ccc3ccccc3c2)NC(=O)N(CC(N)=O)C1=O (centres undefined)	2	i	-4	0	-1	-1	4	0
O=C(/C=C(\c1ccc(Cl)cc1)n1cncn1)c1ccc(Cl)cc1	-12	i	-3	.	-2	31*	18*	24
CCCn1c(N)cc(=O)n(C)c1=O	.	i	2	17	1	-5	-2	-1
Nc1nc(SCc2ccccc2Cl)n[nH]1	5	i	-3	-15	-2	-4	-3	6
Cc1cccc(NC(=O)Nc2ccc(C)cc2Br)c1	-6	i	-8	-16	-8	-1	0	-6
COCCN(C(=O)c1ccco1)C(C(=O)NC1CCCC1)c1cccs1 (centres undefined)	-14	i	-6	-7	-2	-1	4	-12
Cc1ccc(S(=O)(=O)Nc2ccc(O)c3cccnc23)cc1	-30	.	-1	-10	8	5	2	21
O=C(NNC(=O)C1CCN(S(=O)(=O)c2cccc(Cl)c2)CC1)C1CC1	-34	i	0	-2	-11	2	2	3
CC(CCc1ccccc1)NC(=O)c1ccc(F)cc1 (centres undefined)	-19	i	-4	2	0	0	-1	-12
CCOc1ccc(Cc2onc3c2C(=O)CCC3)cc1OCC	4	i	5	-12	-7	2	-2	.
C/C(=N\NC(=O)CC#N)c1cc2ccc(O)cc2oc1=O	-23	i	?	13	?	-5	5	-11
Cn1c(=O)c2c(nc(SCC(=O)N3CCc4ccccc4C3)n2C)n(C)c1=O	.	i	0	.	8	2	2	-10
CCN1CCN(Cc2c(O)ccc3c(=O)c(-c4ccc(OC)c(OC)c4)c(C)oc23)CC1	45	i	-8	.	-5	0	5	-5
O=S(=O)(c1ccccc1F)N1CCN(Cc2cc3c(cc2Br)OCCO3)CC1	-1	.	.	15	.	-1	-3	.
Cc1cccc(Nc2nnc(SCc3cn4ccsc4n3)s2)c1	-34	i	7	.	0	5	-4	-2
Cc1cc(Oc2nnnn2-c2ccccc2)ccc1Cl	-8	i	-2	-11	-5	4	8	-9
CSc1ncc(CN2CCN(C3CCN(C(C)C)CC3)C(CCO)C2)cn1 (centres undefined)	.	.	1	-8	-5	-2	2	.
O=C(Cn1cncn1)NCc1cccc(C(F)(F)F)c1	-15	i	-5	8	1	4	5	-9
N#CCC(CNc1ncc(C(F)(F)F)cc1Cl)OC(=O)c1cccc(C(F)(F)F)c1 (centres undefined)	-5	i	10	.	-5	-4	4	-5
COc1ccc(Cl)cc1C(=O)NNC(=S)NC(=O)c1cc(-c2ccc(Cl)cc2)nc2ccccc12	-5	i	-3	94*	17	6	-16	21
Cc1cc(S(=O)(=O)Nc2nc(CN3CCOCC3)nc3sc4c(c23)CCC4)cc(C)c1C	-2	.	.	7	.	-3	0	.
Cc1ccc(S(=O)(=O)/C(C#N)=C/c2c(N3CCCCC3)nc3ccccn3c2=O)cc1	-20	i	-9	18	-2	3	5	-2
Cn1c(-c2ccsc2)c(-c2cccs2)c2cc(Br)ccc21	-23	.	.	-34	.	-2	-3	80*

Brought forward from above: two compounds, then new ones.
SMILES	UUG fidelity	Rce1 inh	PABP polyA inh	Env fusion inh	eIF4H inh	MT1-MMP act inh	MT1-MMP act inh RFP	CSC inhib	others
Cc1ccc(S(=O)(=O)/C(C#N)=C/c2c(N3CCCCC3)nc3ccccn3c2=O)cc1	-20	i	-9	18	-2	3	5	-2
Cn1c(-c2ccsc2)c(-c2cccs2)c2cc(Br)ccc21	-23	.	.	-34	.	-2	-3	80*
CC1CC(=O)N(CC(=O)NCc2ccc3c(c2)OCO3)c2ccccc2S1 (centres undefined)	-10	i	1	-3	6	3	3	-9
CC1=C(C#N)C(Nc2cc(C)ccn2)(C(F)(F)F)C(=O)N1 (centres undefined)	-16	i	-2	-23	-4	-2	3	13
Cc1cc(C)cc(NC(=S)N2CCN(C(=O)c3ccco3)CC2)c1	-12	i	-6	16	7	7	3	-6
CCOC(=O)CNc1c(-c2ccccc2)nc2ccc(Cl)cn12	-30	i	-15	-39	-10	-6	-1	.

Compound activity from PubChem BioAssay.
